Assay outcomes deposited in PubChem by National Center for Advancing Translational Sciences (NCATS).
miR-21 FLuc: qHTS Assay for Modulators of miRNAs and/orActivators of miR-21; 340,000 tested, under 10 active; AID 2288, 2010; Potency, µM (top dose mostly 38.3 µM), for inactives: at the highest dose reporter change, positive = more light; HeLa miR-21 FLuc reporter, luciferase, 48 h; active = well fitted rising curve with a large enough effect; inconclusive = small, poorly fitted or top-dose-only effect; inactive = no such curve, though single readings can be large or run the other way;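 further: % of control where 0% means no effect; miR-21 action dims this reporter so a rising signal means less miR-21 action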
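HeLa cells stably expressing CMV-driven firefly luciferase with a downstream miR-21 binding sequence, endogenously expressing miR-21, were treated with titrations (up to about 40uM final) for 48 hours at 37 degree Celsius. Luciferase luminescence was read after lysis.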
GLA inh pH 4.5: qHTS Assay for Inhibitors of Human alpha-Galactosidase at pH 4.5; AID 1467, 2008; purified enzyme, 4-MU-alpha-Gal fluorescence, pH 4.5; activity change, negative = inhibition, % at 105 µM; 230,000 tested, under 10 active; inconclusive = small, poorly fitted or top-dose-only inhibition, or a rising curve; inactive = flat fitted curve, though single readings scatter; no compound was filed as active;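 further: 0% = full activity with enzyme and -100% = basal without enzyme; dose as in the result columns while the protocol names 77 µM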
Rango release inh: qHTS Assay for Inhibitors of RanGTP induced Rango (Ran-regulated importin-beta cargo) - Importin beta complex dissociation. Snurportin-1 (Homo sapiens) + GTP-binding nuclear protein Ran (Homo sapiens) + Importin …. Biochemical FRET Rango-importin beta, RanGTP-induced dissociation. 340,000 tested, 0.071% active. AID 540253, 2011. Potency, µM (titrated, usually from 46.1 µM), inactives show at the top dose activity change, negative = inhibition; active means falling FRET ratio curve, often poorly fitted, with flat reads before Ran was added; inconclusive means other falling curves, or compound fluorescence or quenching; inactive means flat or rising ratio curve;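 further: potency means the concentration at half of the fitted maximal effect; % of control where 0% means no effect; nearly all actives have a fitted effect of over 45% in size; -100% = wells without RanGTP and RCC1; the record marks most hits as doubtful in a second field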
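Compounds preincubate 5 min with complex of recombinant Rango and importin beta in PBS with 1 mM DTT. Ran (0.6 uM) loaded with 2 mM GTP plus 0.2 uM RCC1 starts dissociation; FRET is recorded 45 min later.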
Rango-impB inh: qHTS Assay for Inhibitors of Rango (Ran-regulated importin-beta cargo) - Importin beta complex formation. Rango CFP/YFP FRET sensor + importin beta, 45 min. Potency, µM (doses to about 92.2 µM), for the others: at the highest dose inhibition of complex formation. 340,000 tested, 0.031% active; active = rising FRET ratio curve, often small or poorly fitted; inconclusive = mostly compound fluorescence or quenching in the first reads; inactive = flat curves in all reads;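 further: potency means the concentration at half of the fitted maximal effect; 0% = DMSO wells and 100% = buffer wells lacking importin beta; nearly all actives have a fitted effect of over 15% in size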
Target sequence (Q14974 whole entry, looked up): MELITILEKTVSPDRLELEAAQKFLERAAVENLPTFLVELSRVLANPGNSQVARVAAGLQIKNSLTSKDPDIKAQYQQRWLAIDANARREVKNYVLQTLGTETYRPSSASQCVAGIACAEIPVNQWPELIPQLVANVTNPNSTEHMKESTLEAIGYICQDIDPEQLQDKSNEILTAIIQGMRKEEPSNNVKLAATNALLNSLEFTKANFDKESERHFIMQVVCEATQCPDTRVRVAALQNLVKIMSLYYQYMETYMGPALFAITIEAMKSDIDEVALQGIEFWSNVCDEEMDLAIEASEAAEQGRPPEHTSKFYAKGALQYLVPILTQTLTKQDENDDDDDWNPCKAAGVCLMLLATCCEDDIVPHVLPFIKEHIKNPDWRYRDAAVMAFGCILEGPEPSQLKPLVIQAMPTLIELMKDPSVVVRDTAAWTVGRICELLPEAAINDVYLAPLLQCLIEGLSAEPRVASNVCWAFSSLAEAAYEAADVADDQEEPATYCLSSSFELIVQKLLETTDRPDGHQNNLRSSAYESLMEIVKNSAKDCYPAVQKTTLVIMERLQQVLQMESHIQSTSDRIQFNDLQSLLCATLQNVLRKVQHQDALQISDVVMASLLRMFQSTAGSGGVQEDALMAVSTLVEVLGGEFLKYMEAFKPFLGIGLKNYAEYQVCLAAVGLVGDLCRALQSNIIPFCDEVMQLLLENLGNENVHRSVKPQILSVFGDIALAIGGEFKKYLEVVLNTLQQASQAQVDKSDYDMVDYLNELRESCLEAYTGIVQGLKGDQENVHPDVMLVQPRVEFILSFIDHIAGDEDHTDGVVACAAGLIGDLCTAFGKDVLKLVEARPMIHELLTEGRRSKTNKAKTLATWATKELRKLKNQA
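Inhibition scored from the CFP 486 nm/YFP 530 nm FRET ratio 45 min after adding 0.125 microM importin beta to 50 nM Rango biosensor preincubated 5 min with compound (room temperature, PBS with DTT, Tween-20, BSA). No-importin wells as positive control.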
Numbers without * were called inactive; ? = inconclusive; / = no result given. These rows are one share of the data; the hit share may differ from the screen's.

miR-21 FLuc | GLA inh pH 4.5 | Rango release inh | Rango-impB inh | canonical_smiles
-8% | / | 11% | 2.7% | COc1ccc(Br)cc1CNc1ccc(N2CCOCC2)cc1
-46% | -2 | -5% | -1.7% | O=C(Nc1ccc2c(c1)OCCO2)c1cccc(S(=O)(=O)N2CCOCC2)c1
24% | -13 | 11% | 9.0% | Cc1cc(=O)[nH]c2c(N=Nc3ccc(O)cc3)c(N)nn12
-3% | -1 | 4% | 3.3% | Cc1cccc(-n2nnc3cnn(C)c3c2=O)c1
-16% | 9 | 10% | 4.2% | CCN1CCN(CCOc2cccc(Oc3ccccc3)c2)CC1
-31% | -5 | -11% | ? | Cc1cc2c(cc1C)CN(c1ccccc1)C2
-3% | / | 23% | -2.1% | NC(=O)CN1CCCC1c1ccc2c(c1)OCCO2 (stereo not given)
/ | / | -20% | -3.5% | O=C(COC(=O)c1ccc([N+](=O)[O-])o1)Nc1ncc(Cl)cc1Cl
-11% | -3 | 1% | 1.1% | O=C(c1ccc(N2CCOCC2)nc1)N1CCOCC1
-30% | / | 6% | 1.6% | FC(F)(F)c1ccccc1-c1nc(-c2ccncc2)no1
-17% | 3 | -11% | -3.4% | Cc1nc(C(=O)NC2CC2)sc1C1(C)CC(c2ccccc2)=NO1 (stereo not given)
6% | -2 | 3% | 4.3% | COc1ccc(-n2c(C)cc(C(=O)COC(=O)Cc3n[nH]c(=O)c4ccccc34)c2C)cc1
2% | / | -1% | -5.0% | CCc1cc(-c2n[nH]c(C)c2-c2ccccc2Cl)c(O)cc1OC
1% | / | -18% | -1.8% | COc1ccc(NC(=O)C2CCN(S(C)(=O)=O)CC2)cc1OC
8% | / | 2% | 0.3% | O=C(c1cccc(F)c1)N1CCN(Cc2cccc(Br)c2)CC1
-17% | -14 | -10% | 5.1% | Cc1ccc(NC(=O)c2c(C(F)(F)F)nn(C)c2SCc2ccc(Cl)cc2)cc1C
-2% | -7 | 1% | -1.8% | CC(=O)N/C(=C\c1cccc([N+](=O)[O-])c1)C(=O)NC(C)C
6% | / | ? | -0.7% | Cc1ccc(CS(=O)(=O)Cc2ccc(C(=O)NCCc3ccccc3)o2)cc1
-52% | 5 | 8% | 2.4% | O=C(c1ccc(Cl)s1)N1CCc2ccccc21
-72% | -5 | -4% | -0.7% | COc1c(O)cc2oc(-c3ccc(O)cc3)cc(=O)c2c1O
-6% | -11 | -20% | 3.6% | O=C(CSc1nn(-c2ccc(Cl)cc2)c(=S)s1)NCC1CCCO1 (stereo not given)
1% | 9 | 17% | -2.1% | COc1ccc2c(c1)C1(C)CC(C)(C)N2C(=O)N1c1ccccc1 (stereo not given)
-6% | -5 | -19% | 4.2% | CC(O)(CS(=O)(=O)Cc1ccccc1)C(=O)Nc1cccc(C(F)(F)F)c1 (stereo not given)
-16% | -13 | 8% | 0.0% | Cc1ccc2oc(-c3cccc(NC(=O)c4cc(-n5cnnc5)ccc4Cl)c3)nc2c1
0% | -4 | -13% | -4.0% | CCOc1nc(N=C(N)N)nc2c(C)cccc12
-4% | 9 | -21% | 3.6% | CCOc1ccccc1OC(=O)c1ccco1
2% | 7 | -10% | 0.4% | O=C1CCCC2=C1C1(CCCC1)N=C(Nc1nc3ccccc3s1)N2
2% | / | -7% | -1.1% | CCn1c(SCC(=O)NC2CCCCC2)nc2ccccc2c1=O
8% | -9 | 17% | -0.8% | CC(C)Cn1c(O)c(/C=C2\C=NN=C2c2ccccc2)sc1=S
0% | 0 | -10% | 1.1% | Cc1ccc(NC2CC(C)NC(=S)N2)cc1 (stereo not given)

Reprinted from the entries so far, eleven compounds:
miR-21 FLuc | GLA inh pH 4.5 | Rango release inh | Rango-impB inh | canonical_smiles
-8% | / | 11% | 2.7% | COc1ccc(Br)cc1CNc1ccc(N2CCOCC2)cc1
-46% | -2 | -5% | -1.7% | O=C(Nc1ccc2c(c1)OCCO2)c1cccc(S(=O)(=O)N2CCOCC2)c1
24% | -13 | 11% | 9.0% | Cc1cc(=O)[nH]c2c(N=Nc3ccc(O)cc3)c(N)nn12
-3% | -1 | 4% | 3.3% | Cc1cccc(-n2nnc3cnn(C)c3c2=O)c1
-16% | 9 | 10% | 4.2% | CCN1CCN(CCOc2cccc(Oc3ccccc3)c2)CC1
-31% | -5 | -11% | ? | Cc1cc2c(cc1C)CN(c1ccccc1)C2
-3% | / | 23% | -2.1% | NC(=O)CN1CCCC1c1ccc2c(c1)OCCO2 (stereo not given)
/ | / | -20% | -3.5% | O=C(COC(=O)c1ccc([N+](=O)[O-])o1)Nc1ncc(Cl)cc1Cl
-11% | -3 | 1% | 1.1% | O=C(c1ccc(N2CCOCC2)nc1)N1CCOCC1
-30% | / | 6% | 1.6% | FC(F)(F)c1ccccc1-c1nc(-c2ccncc2)no1
-17% | 3 | -11% | -3.4% | Cc1nc(C(=O)NC2CC2)sc1C1(C)CC(c2ccccc2)=NO1 (stereo not given)

More compounds:
miR-21 FLuc | GLA inh pH 4.5 | Rango release inh | Rango-impB inh | canonical_smiles
1% | 10 | 1% | -2.4% | CCOC(=O)Cn1c(=O)c2c(nc3n2CCN3Cc2ccccc2)n(C)c1=O
15% | / | 9% | 0.9% | COc1ccc(C2=NS(=O)(=O)N(C)C(C(=O)Nc3ccc4c(c3)OCO4)=C2)cc1OC
5% | -13 | -2% | -1.4% | OCCC1CN(Cc2ccc(C(F)(F)F)cc2)CCN1Cc1ccccc1 (stereo not given)
-3% | / | -17% | 1.8% | O=C(Nc1ccnn1C1CCN(C(=O)Cc2cccc(Cl)c2)CC1)C1CC1
1% | -4 | 1% | -1.6% | Clc1nc(CN2CCCCC2)nc2sc3c(c12)CCC3
-6% | 0 | -17% | -0.7% | CC1CN(C(=O)c2ccccc2NS(=O)(=O)c2cccc([N+](=O)[O-])c2)CC(C)O1 (stereo not given)
-4% | / | 1% | -1.1% | Cc1cccc(NC(=O)CN2C(=O)CCS(=O)(=O)c3ccccc32)c1C
-7% | -7 | -18% | ? | CCOC(=O)CC1=C(C(=O)OCC)C(c2ccc(C)o2)C(C#N)=C(N)O1 (stereo not given)
-15% | / | -20% | -1.9% | Oc1ccc2ccccc2c1CNc1ccc(Br)cn1
1% | 0 | 13% | -3.5% | O=C(O)c1ccc(CSc2nnc(-c3ccncc3)n2-c2ccc(Br)cc2)cc1
-4% | -1 | 9% | ? | Cc1cc(C(=O)CSc2nnc(-c3ccc(F)cc3)o2)c(C)n1CC1CCCO1 (stereo not given)
-1% | / | 17% | 4.1% | CC(C)c1ccc(N(CC(=O)N2CCOCC2)S(C)(=O)=O)cc1
-8% | -2 | -2% | 4.2% | CCn1ncc(NC(=S)NCCc2ccccc2)c1C(N)=O
-10% | -6 | 3% | -0.2% | Cc1ccc(C)c(NC(=O)CCC(=O)N/N=C/c2ccc3c(c2)OCO3)c1
0% | -1 | 4% | 2.1% | O=C(CCCn1c(=O)c2sccc2n(CC(=O)OCc2ccccc2)c1=O)NCc1ccco1
/ | / | -1% | 2.9% | Cc1ccnc(NC(=O)CN2C(=O)NC(C)(c3ccc4ccccc4c3)C2=O)c1 (stereo not given)
0% | / | 20% | 0.2% | O=C(N/C(=C/c1ccccc1)C(=O)N1CCCCC1)c1ccco1
/ | / | -4% | -0.5% | CC(NC(=O)c1ccco1)C(=O)N1CCN(S(=O)(=O)c2ccccc2C#N)CC1 (stereo not given)
-47% | -1 | -5% | -2.1% | O=C(CSc1nc2cc(Cl)ccc2o1)Nc1ccc(N2CCOCC2)cc1
-2% | -2 | -1% | 4.1% | C/C(Cc1ccccc1)=N/NC(=O)CCCC(=O)N/N=C(/C)Cc1ccccc1
-1% | 0 | / | / | COc1ccccc1-c1c(C#N)c(SCC(=O)N2CCCC2)nc(C)c1C(N)=O
-15% | / | ? | ? | Nc1c(C(=O)Nc2ccc(Cl)c(C(=O)O)c2)sc2nc3c(cc12)CCCC3
-3% | 7 | 1% | -3.1% | COc1ccc(NC(=O)Nc2ccc(C(=O)N3CCOCC3)cc2)c(OC)c1
-50% | 4 | 0% | -0.5% | Cc1cccc(Oc2coc3cc(OC(=O)c4cccs4)ccc3c2=O)c1
-3% | / | 2% | 3.5% | O=C(CN(C(=O)c1csnn1)c1ccc(F)cc1)NCc1ccc2c(c1)OCO2
-4% | / | -11% | -0.1% | NC(=O)c1cc(S(=O)(=O)N2CCc3ccccc3C2)cs1
-7% | / | ? | 2.5% | Cc1ccc(C(C)C)c(OCC#CCN2CCOCC2)c1
0% | -2 | 13% | -0.1% | Cc1noc(C(=O)N2CC3(C)CC2CC(C)(C)C3)c1Cl (stereo not given)
-2% | 4 | 23% | -1.2% | O=S(=O)(c1cccs1)N1CCN(CC(O)COC2CCCc3ccccc32)CC1 (stereo not given)
/ | / | -4% | 2.8% | Cn1nc(C(=O)NNC(=O)C(CCC(N)=O)NS(=O)(=O)c2ccc(Cl)cc2)c2ccccc2c1=O (stereo not given)

Remaining list, next part.
miR-21 FLuc | GLA inh pH 4.5 | Rango release inh | Rango-impB inh | canonical_smiles
-19% | -2 | -21% | -3.5% | O=C(CCCCCN1C(=O)c2cccc3cccc(c23)C1=O)NCCO
-3% | -7 | 10% | -1.5% | COc1ccc(OC)c(C(=O)CSc2nnc(Cc3cccs3)n2C)c1
-32% | / | 19% | -0.2% | CC(=O)c1ccc(NC(=O)C2=CC(c3ccco3)=NS(=O)(=O)N2C)cc1
0% | / | -14% | -0.1% | O=C(c1ccoc1)N1CCCC(CO)(CCCc2ccccc2)C1 (stereo not given)
-17% | 2 | 9% | 0.6% | Cc1ccc(-n2c(SCC(=O)NCc3ccco3)nc3c([nH]c4ccccc43)c2=O)cc1
/ | 8 | -2% | 0.6% | COC(=O)[C@@H]1[C@H](CCc2ccccc2)NC(=O)N(Cc2ccccc2)[C@@H]1C
-7% | / | 10% | -1.9% | O=[N+]([O-])c1ccc(Cl)cc1NCC1CCCO1 (stereo not given)
16% | / | -17% | -0.9% | CCCNC(=S)N1CCN(c2nc(-c3ccc(C)cc3)cs2)CC1
-25% | / | -15% | -1.0% | Cc1ccc2c(C)c(C(=O)N3CCN(C4CCS(=O)(=O)C4)CC3)oc2c1C (stereo not given)
-18% | 9 | -7% | -0.3% | Cn1c(C(=O)Nc2ccc3c(c2)OCCO3)cc2sccc21
-7% | 0 | 52% | 0.2% | CC(C(=O)N1c2ccccc2CCc2ccccc21)n1nnc(-c2ccc(N(C)C)cc2)n1 (stereo not given)
/ | / | -7% | 0.1% | CC(=O)Nc1cccc(OCC(=O)Nc2cccc(S(=O)(=O)N3CCCC3)c2)c1
-1% | 7 | 7% | 1.3% | COc1ccc(Cc2nnc(NC(=O)Cn3cnc4c3c(=O)n(C)c(=O)n4C)s2)cc1OC
/ | / | 0% | 0.0% | Cc1ccc(C(=O)NNC(=O)C(C)Oc2ccc3ccccc3c2)o1 (stereo not given)
3% | 2 | 27% | 0.6% | COC(=O)C1C(=O)C2=C(CC1C)NC(=O)CC2c1ccc(F)cc1 (stereo not given)
0% | 2 | 6% | 0.3% | O=C(CCC1CCCC1)NC1CCCCC1
-5% | -6 | 1% | 6.3% | O=C(Cn1nnc(-c2ccccc2)n1)N/N=C/c1cccc([N+](=O)[O-])c1
-1% | 3 | -15% | -2.3% | COc1ccc(CC(=O)Nc2ccc(-c3cn4cccc(C)c4n3)cc2)cc1OC
-1% | -5 | 0% | -0.5% | CCCN1Cc2cccc(C(=O)Nc3ccc(C)cc3)c2C1=O
